Assay outcomes deposited in PubChem by National Center for Advancing Translational Sciences (NCATS).
VDR inhibitor = blocks the human vitamin D receptor | P11473 | VDR-SRC2-3 peptide fluorescence polarization, 2 h | Potency, µM, inactives show max response, negative = inhibition, hits mostly inhibitors | 400,000 compounds, 0.93% hits; active = well fitted inhibition curve with a large enough effect; inconclusive = small, poorly fitted or top-dose-only effect, or another doubt; inactive = no such curve, though single readings can be large or run the other way; note: series mostly up to about 120 µM
Target sequence (P11473 whole entry, looked up): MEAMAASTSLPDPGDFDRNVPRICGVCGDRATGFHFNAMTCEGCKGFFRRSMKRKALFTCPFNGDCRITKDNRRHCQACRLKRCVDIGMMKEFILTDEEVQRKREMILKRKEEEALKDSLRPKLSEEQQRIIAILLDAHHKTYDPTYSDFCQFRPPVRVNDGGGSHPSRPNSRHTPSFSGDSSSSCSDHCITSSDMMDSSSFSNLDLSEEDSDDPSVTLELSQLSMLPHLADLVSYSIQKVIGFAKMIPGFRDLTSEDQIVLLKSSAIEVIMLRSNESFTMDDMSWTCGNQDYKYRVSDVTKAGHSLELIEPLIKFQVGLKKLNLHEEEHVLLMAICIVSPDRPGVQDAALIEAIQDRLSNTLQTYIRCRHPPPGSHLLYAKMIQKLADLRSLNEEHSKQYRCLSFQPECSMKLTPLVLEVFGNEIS
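Compounds are added to VDR with labelled SRC2-3 coactivator peptide and held 2 h at room temperature. Inhibition of the VDR–peptide interaction is then read as a change in fluorescence polarization.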
Numbers without * were called inactive; ? = inconclusive; & = joins results of further samples. % is set by controls: 0 for no effect and ±100 for the full control effect; potency is the fitted concentration of half-maximal effect.

VDR inhibitor	SMILES
-1.1%	Cc1ccc(C)c(NC(=O)C(=O)NCCc2csc(-c3ccc(C(F)(F)F)cc3)n2)c1
-15.6%	O=C(CCCn1c(=O)[nH]c2ccsc2c1=O)N1CCN(c2cccc(C(F)(F)F)c2)CC1
-6.7%	Fc1ccccc1N1CCN(C(c2ccccn2)c2nnnn2C2CCCCC2)CC1 (centres undefined)
?	CCOC(=O)C1CCN(Cc2cc(=O)oc3cc(C)c(Cl)cc23)CC1
2.2%	CCN1CCN(CCCNC(=O)c2ccc3c(c2)sc2nc(-c4ccc(C)cc4)cn23)CC1
-0.8%	CC(C)(C)c1ccc(-c2n[nH]c(=S)n2C2CCCC2)cc1
8.2%	COC(=O)C(C)N(C(=O)c1cccc(Cl)c1)c1c(C)cccc1C (centres undefined)
-11.6%	CC(C)(C)CNc1cc(N2CCOCC2)ccc1[N+](=O)[O-]
3.4%	CCN(CC(=O)Nc1cc(Cl)ccc1C)C(=O)Cc1sc(C)nc1-c1ccc(F)cc1
-4.0%	O=C1c2c(O)cc(O)cc2O[C@H](c2ccc(O)cc2)[C@H]1O
1.8%	O=C(Cn1nc(Cc2ccncc2)c2ccccc2c1=O)N1CCN(C(=O)c2ccco2)CC1
24.8%	CCCc1ccc(S(=O)(=O)Nc2ccc(C)c(NS(C)(=O)=O)c2)cc1
-16.6%	CCOc1cc(CNc2ccc(O)cc2)cc(Br)c1OCc1ccccc1
?	Cn1cccc1Cc1nnc(SCC(=O)NC2CCCCC2)n1CCc1ccccc1
4.4%	CCC(C)(C)n1nnnc1C(c1ccc(C)cc1)N1CCC(C)CC1 (centres undefined)
-1.6%	CC(C)CC(=O)Nc1cc(NC(=O)CC(C)C)cc(C(=O)NC(C)(C)C)c1
2.3%	COc1ccc(NC(=O)c2ccco2)cc1NC(=O)c1ccc(OC(C)C)cc1
4.1%	CN(C)/C=C1/NC(=S)NC1=O
0.9%	N#Cc1c(C(F)(F)F)cc(-c2ccc(F)cc2)nc1SCC(=O)O
-8.4%	CC(C)(O)C#Cc1ccc(C(=O)N2CCC(C(N)=O)(N3CCCCC3)CC2)cc1
?	CC(=O)Nc1ccc(SCC(=O)NC(=O)c2ccc(S(=O)(=O)N(C)C)cc2)cc1
-0.4%	CC1CCN(C(=O)c2ccc(-n3cnnn3)cc2)CC1
1.9%	CC(C)(CO)NS(=O)(=O)c1ccc2c(c1)oc(=O)c1cc(S(=O)(=O)NC(C)(C)CO)ccc12
18.6%	COc1ccc(/C=N/NC(=O)c2cc(-c3ccc4c(c3)OCO4)n[nH]2)cc1OC
-4.6%	CC1(C)Cc2c(c(-c3ccco3)nc3sc4c(NCCO)ncnc4c23)CO1
5.6%	Cc1cn2c(=O)cc(COC(=O)c3ccc(NC(=O)c4ccc(C(C)(C)C)cc4)cc3)nc2s1
1.6%	Cc1ccc(C)c(-n2c(CNc3ccc(F)cc3)nnc2SCC(N)=O)c1
0.6%	O=C(NC(Nc1ccccn1)C(Cl)(Cl)Cl)c1ccccc1 (centres undefined)
2.3%	CCOC(=O)Cc1csc(NC(=O)CSc2cc(Cl)ccc2Cl)n1
-0.7%	COc1ccc(C(=O)NCC(c2ccco2)N2CCc3ccccc32)cc1 (centres undefined)
-19.6%	COc1ccc2c(/C=N/Nc3ccc(C(=O)O)cc3)c[nH]c2c1
-0.3%	CC(=O)c1ccc(NC(=O)C(C)N(C)CC(=O)Nc2ccc(N3CCOCC3)cc2)cc1 (centres undefined)

Next part; the last two above are carried over.
VDR inhibitor	SMILES
-19.6%	COc1ccc2c(/C=N/Nc3ccc(C(=O)O)cc3)c[nH]c2c1
-0.3%	CC(=O)c1ccc(NC(=O)C(C)N(C)CC(=O)Nc2ccc(N3CCOCC3)cc2)cc1 (centres undefined)
-5.0%	Cc1onc(-c2ccc3c(c2)OCO3)c1-c1ccc2[nH]ccc2c1
3.3%	N#CCC(=O)Nc1cc(C(F)(F)F)ccc1N1CCOCC1
-20.6%	Cc1ccc(Nc2ccc(C(F)(F)F)cc2[N+](=O)[O-])cc1
-25.4%	COCCN(C(=O)CSc1nc2ccc(Cl)cc2[nH]1)c1c(N)n(Cc2ccccc2)c(=O)[nH]c1=O
-1.1%	COc1cccc(OCCCCSc2ncccn2)c1
27.3%	Cc1c(S(=O)(=O)N2CCN(c3ccccc3)CC2)c(=O)n(C)c(=O)n1C
2.4%	CC(C)(C)OC(=O)N1CCC[C@H]1c1nnc(SCC(=O)Nc2ccc(Br)cc2)o1
15.6%	Cc1nc2ccc(NS(=O)(=O)c3ccc(F)cc3)cc2s1
0.7%	COc1cc(OC)c(NC(=O)c2cc(S(=O)(=O)N3CCCC3)cn2C)cc1Cl
-0.6%	CCc1ccc(S(=O)(=O)N(C(C)=O)c2ccc3oc4c(c3c2)CCCC4)cc1
-0.2%	CCOc1ccccc1CNC(=O)CCn1cccn1
8.6%	O=C(CCSc1nnc2ccccn12)Nc1ccc(F)cc1
-1.3%	O=C(c1ccc(F)cc1)C1CCN(S(=O)(=O)c2ccccc2)CC1
11.5%	CCCNC(=O)N(CCOC)CC1CCCN(C2Cc3ccccc3C2)C1 (centres undefined)
-18.2%	Oc1ccc(Nc2nc(NCC3CCCO3)c3ccccc3n2)cc1 (centres undefined)
?	CC(C)(O)c1ccccc1CC[C@H](SCC1(CC(=O)O)CC1)c1cccc(/C=C/c2ccc3ccc(Cl)cc3n2)c1

Rewritten as labelled records: part of the list above
CCc1ccc(S(=O)(=O)N(C(C)=O)c2ccc3oc4c(c3c2)CCCC4)cc1
  VDR inhibitor = -0.6%
CCOc1ccccc1CNC(=O)CCn1cccn1
  VDR inhibitor = -0.2%
O=C(CCSc1nnc2ccccn12)Nc1ccc(F)cc1
  VDR inhibitor = 8.6%
O=C(c1ccc(F)cc1)C1CCN(S(=O)(=O)c2ccccc2)CC1
  VDR inhibitor = -1.3%

Later entries.
VDR inhibitor	SMILES
-0.1%	Cc1cc(CNC(=O)c2ccc3nc(Cc4ccccc4F)oc3c2)nn1C
2.1%	O=C(Nc1ccc2c(c1)OCCO2)C1CCN(C(=O)c2ccc(Cl)cc2)CC1
-8.6%&-1.4%	Cn1c(=O)n(C)c2cc(NS(=O)(=O)c3ccc(F)cc3)ccc21
6.2%	COC(=O)c1ccc(COc2ccc(/C=N/O)cc2OC)o1
-0.9%	COCCCN1C(=O)C2C(C(=O)Nc3cc(C)cc(C)c3)C3C=CC2(O3)C1C(=O)NC1CCCCC1 (centres undefined)
13.1%	COc1cc(/C=N/NC(=O)c2nc3ccccn3c2C)cc(OC)c1O
4.9%	OCC[C@@H]1C[C@@H](O)[C@H](O)[C@@]2(CCCc3ccccc3O2)O1
21.5%	Cc1ccc(C(=O)NCC(=O)OCc2cc(=O)n3ccsc3n2)cc1

Taken from above.
Under VDR inhibitor, Cc1ccc(C(=O)NCC(=O)OCc2cc(=O)n3ccsc3n2)cc1 has 21.5%
Under VDR inhibitor, COc1cc(/C=N/NC(=O)c2nc3ccccn3c2C)cc(OC)c1O has 13.1%
Under VDR inhibitor, Cn1c(=O)n(C)c2cc(NS(=O)(=O)c3ccc(F)cc3)ccc21 has -8.6%&-1.4%
Under VDR inhibitor, O=C(Nc1ccc2c(c1)OCCO2)C1CCN(C(=O)c2ccc(Cl)cc2)CC1 has 2.1%

(listing goes on)
VDR inhibitor	SMILES
-1.3%	COc1ccc(CCNC(=O)c2ccc3c(=O)n(Cc4ccco4)c(=S)[nH]c3c2)cc1OC
1.9%	COc1ccc(N2CCN(c3oc(COc4ccc(Cl)cc4)nc3C#N)CC2)cc1
5.7%	O=C(Nc1ccccc1)c1cccc(-c2nnc(-c3ccccc3)o2)c1
-5.9%	Cc1ccc(C(=O)NC(O)C(Cl)Cl)cc1 (centres undefined)
-4.8%	CCC1(CC)NC(=S)N(Nc2ccccc2)C1=O
-3.6%	Cc1cc(Cl)ccc1NC(=S)NCc1ccccc1
-14.2%	C=CCN(C(=O)Cn1ncc2c1-c1cc(C)ccc1OC2)c1ccccc1
3.8%	CC(=O)c1cccc(NC(=S)N2CCN(c3ccccn3)CC2)c1
5.6%	COc1ccc(NC(=O)CCNC(=O)c2ccco2)cc1OC
1.6%	O=C(NC1CCSC1=O)c1cccc(Cl)c1 (centres undefined)
-4.2%	CC(C)(C)NC(=O)NC(=O)COC(=O)CNS(=O)(=O)c1ccc(Br)cc1Cl
-1.5%	CC(=O)c1ccc(OCC(=O)Nc2ccccc2N2CCCC2)cc1
3.0%	Fc1ccccc1COc1ccccc1/C=N/Nc1nc(N2CCCC2)nc(N2CCCC2)n1
5.7%	COc1ccc(N(C(=O)c2ccccc2OC)C2C=CS(=O)(=O)C2)c(OC)c1 (centres undefined)
-13.7%	CCn1nnnc1SCC(=O)c1cccc(OC)c1
15.0%	Cc1cc(C(=O)N2CCc3ccccc32)c2ccccc2n1
-15.9%	COc1ccc([N+](=O)[O-])cc1NCC(=O)c1ccc(C)cc1
-5.0%	Cc1ccc(/C=N/NC(=O)c2ccc3c(c2)OCCO3)s1
-10.8%	CCCCCCC1C(C#N)=C(N)OC2=C1C(=O)CC(C)(C)C2 (centres undefined)
-1.3%	CCOC(=O)Cc1csc(NC(=O)CSc2nnnn2-c2ccc(C)c(C)c2)n1
-18.3%	COc1ccc(-c2ccc3c(=O)cc(-c4ccsc4)oc3c2)cn1
-5.9%	CC12CN3CCN(CC(C3)/C1=N\N=C1/C3CN4CCN(C3)CC1(C)C4)C2
-3.0%	O=C(NCc1ccco1)C1CCCN(S(=O)(=O)c2cnc[nH]2)C1 (centres undefined)
10.6%	Cc1ccccc1Nc1nc(N)nc(COC(=O)CCS(=O)(=O)c2ccccc2)n1
-4.1%	N#CNC(=Nc1cccc(F)c1)SCc1ccccc1F
?	CCCC(=O)OCCNc1cc(SCc2ccco2)c2nonc2c1[N+](=O)[O-]
-14.2%	COc1cc2ccccc2cc1C(=O)Nc1cccc(-c2nc3cc(C)c(C)cc3o2)c1
-3.5%	CCc1nnc(NC(=O)CSCc2cc(=O)n3nc(C(C)C)sc3n2)s1
-2.4%	CCc1ccc(C(=O)COC(=O)c2ccccc2OC)cc1
-2.7%	O=S(=O)(Cc1ccc(Cl)cc1)N1CCN(Cc2ccccc2)CC1
-13.7%	CCOc1ccc2sc(NS(=O)(=O)c3ccc(N)cc3)nc2c1
-7.4%	CC(OC(=O)c1cccc(S(=O)(=O)N2CCCC2)c1)C(=O)NC1CCCCC1C (centres undefined)
4.3%	Oc1ccccc1-c1nc2ccc(Cl)cn2c1Nc1ccc2c(c1)OCCO2
4.6%	CCC1(C)C2(C#N)C(N)=NC(OC)(OC)C12C#N (centres undefined)
-0.8%	Cc1ccc2[nH]c(=O)c(CN(CCCN3CCOCC3)C(=O)Nc3ccc(Cl)cc3)cc2c1
-0.7%	CCOC(=O)CNc1ccc(OC(F)(F)F)cc1
-15.3%	Cn1c(C(=O)OC(C(=O)NC2CCCC2)c2ccncc2)cc2sccc21 (centres undefined)
14.1%	COc1cccc(CNC(=O)COC(=O)c2ccc(Cl)s2)c1
21.0%	CCc1nc2ccc(C(=O)NCc3cc(OC)ccc3OC)cc2nc1CC
-1.5%	Cc1ccc(C#CC[N+](C)(C)CC#Cc2ccccc2)cc1
2.2%	CCS(=O)(=O)N1Cc2ccccc2CC1C(=O)Nc1nc2ccccc2[nH]1 (centres undefined)
16.1%	CC(C)CCN1CCN(Cc2cccn2-c2nccs2)CC1CCO (centres undefined)
1.3%	Cc1cccc(Sc2c([N+](=O)[O-])ncn2C)n1
-26.6%	Cc1ccc(SCc2ccc(C(=O)Nc3ccccc3Br)cc2)cc1
-7.6%	O=C(Nc1ccc2oc(-c3ccccc3)nc2c1)c1ccc2ccccc2c1
-5.3%	CCCCOC(=O)c1ccc(NC(=O)c2sc3nc(C)cc(C)c3c2N)cc1
-4.2%	CN(C)Cc1nc2ccccc2c(=O)n1Cc1nc(C(C)(C)C)cs1
?	Cc1c(C)c2c(OCC(=O)NCC(=O)NCC(=O)O)cc3c(c2oc1=O)CCC(C)(C)O3
-15.9%	CC(C)C[C@H](NC(=O)OC(C)(C)C)C(=O)N[C@@H](CO)[C@H](O)[C@@H]1C[C@@H]1C(=O)NC1CC1
-16.8%	COc1ccc(CCNC(=O)COC(=O)c2ccc([N+](=O)[O-])o2)cc1
-0.7%	N#Cc1ccc(C(=O)OCC(=O)NC(=O)NC2CCCCC2)cc1
-7.4%	O=C(ONC1=NCCCCC1)c1cccc([N+](=O)[O-])c1
-1.0%	Cc1ccc(S(=O)(=O)Nc2ccccc2CNc2ncc(Br)cc2Br)cc1
3.2%	O=C(CSc1ccsc1[N+](=O)[O-])NCCc1ccc(Cl)cc1
-0.7%	Cn1ccsc1=NC(=O)c1ccc([N+](=O)[O-])o1
-2.4%	O=C(Nc1ccccc1N1CCCCC1)c1cccs1

More entries
VDR inhibitor	SMILES
-3.5%	CC(C)(C)c1ccc(NC(=O)c2ccc(=O)[nH]n2)cc1
8.1%	Cc1ccc(C)c(NC(=O)c2cc(=O)c3ccccc3o2)c1
2.2%	Cc1[nH]n(-c2ccccc2)c(=O)c1N=Nc1cccc(C(=O)O)c1
-8.4%	O=c1cc(-c2ccccc2F)oc2ccccc12
-4.7%	COc1cccc(C2CC(c3ccccc3)Nc3nc(N)nn32)c1 (centres undefined)
-15.5%	CCCCCn1c(SCC(=O)OC)nc2c1c(=O)[nH]c(=O)n2C
1.8%	CCCCC(c1nnnn1CCOC)N1CCN(Cc2ccccc2)CC1 (centres undefined)
0.6%	O=C(O)c1csc(-c2cccs2)n1
-14.7%	Nc1cccc(NC(=O)CN2CCOCC2)c1
-14.3%	O=C(NCCc1ccccc1)c1cc(-c2ccncc2)nc2ccc(S(=O)(=O)N3CCOCC3)cc12
-16.1%	O=C(COc1ccc(S(=O)(=O)N2CCCC2)cc1[N+](=O)[O-])N1CCCC1
-9.2%	Nc1ccccc1SCc1cn2cccnc2n1
-7.7%	COc1ccc(-c2oc3cccnc3c2/C=C/c2ccc(OC)c(OC)c2)cc1
-10.7%	CC(=O)NCCc1nc2cc(NC(=O)c3ccccc3Cl)ccc2n1C
3.6%	O=C(Nc1nc2cc3c(cc2s1)OCCO3)C1CCCCC1

These rows are one share of the data; the hit share may differ from the screen's.
